# Bioassay records deposited in PubChem BioAssay by National Center for Advancing Translational Sciences (NCATS).
# Six1-Eya2 blk = Six1/Eya2 interaction inhibition; Q15475+O00167; AlphaScreen GST-Six1/His-Eya2 binding, biochemical; active compounds read low; control for the full effect not named in the record; activity change, % (no concentration beside the values); 360,000 compounds, 0.56% hits; AID 651725; in the data active = activity change below about -65%; inconclusive = about -30% to -65%; inactive = above about -30%; also: % is scaled to controls: 0 for no effect and ±100 for the full control effect
#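 Homogeneous AlphaScreen proximity assay pairing GST-Six1 with His-tagged Eya2 (added as 5X mix: 250 nM and 500 nM) in 50 mM Tris pH 8.0, 300 mM NaCl, 1 mM TCEP. Glutathione donor and nickel acceptor beads; 1 h, 37 °C, dark.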
# D2 ag = activates the human D2 dopamine receptor; DiscoveRx PathHunter D2 beta-arrestin, luminescence, 90 min; 100% = 57 uM dopamine signal; AID 624465; P14416; activation, % (no concentration beside the values); 360,000 compounds, 0.084% hits; in the data active = activation above about 40%; inconclusive = about 15% to 40%; inactive = below about 15%; also: compound concentration not given in the record; the text of the record calls up to 30% inactive
# Target sequence (P14416 whole entry, looked up): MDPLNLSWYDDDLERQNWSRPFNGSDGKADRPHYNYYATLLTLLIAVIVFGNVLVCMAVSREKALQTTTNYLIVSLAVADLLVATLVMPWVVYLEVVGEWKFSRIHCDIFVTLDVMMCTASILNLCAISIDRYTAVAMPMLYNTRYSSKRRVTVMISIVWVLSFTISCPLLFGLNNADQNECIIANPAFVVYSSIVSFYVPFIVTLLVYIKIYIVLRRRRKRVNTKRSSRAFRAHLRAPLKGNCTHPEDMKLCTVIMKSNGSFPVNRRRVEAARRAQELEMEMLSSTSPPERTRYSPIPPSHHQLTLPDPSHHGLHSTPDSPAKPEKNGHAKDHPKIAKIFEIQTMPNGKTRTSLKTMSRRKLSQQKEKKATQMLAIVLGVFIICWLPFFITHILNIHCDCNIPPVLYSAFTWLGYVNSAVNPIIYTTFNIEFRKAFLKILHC
#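 DiscoveRx PathHunter D2 beta-arrestin cells (2,100/well) attached overnight, then compound-stimulated 90 min at 37 C in HBSS/10 mM HEPES/0.1% Tween-20 buffer; beta-galactosidase complementation read by luminescence after 1 h at ambient temperature. Dopamine 57 uM final (EC100) as control.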
# CtBP-E1A blk = inhibitors of CtBP/E1A interaction. activity change, % (no concentration beside the values). AID 651724. AlphaScreen GST-E1A/His-CtBP binding, 1536-well; active compounds read low; control for the full effect not named in the record. 340,000 compounds, 0.49% hits; in the data active means activity change below about -65%; inconclusive means about -30% to -65%; inactive means above about -30%; also: % is scaled to controls: 0 for no effect and ±100 for the full control effect
#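 Homogeneous bead-based format: GST-tagged E1A captured on glutathione donor beads, His-tagged CtBP on nickel acceptor beads; compounds precede bead addition by 2 h at 37 °C.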
# D2 potentiator = potentiates the human D2 dopamine receptor allosterically; P14416; DiscoveRx D2 beta-arrestin cells, luminescence, 90 min; 100% = 57 uM dopamine signal; potentiation, % (test concentration not listed); 360,000 compounds, 0.23% hits; AID 624464; active = potentiation of 50% or more; inconclusive = 30% to 50%; inactive = 30% or less;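 also: compound concentration not given in the record; tested on top of an EC20 dose of dopamine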
#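 PathHunter D2 cells, attached overnight at 37 deg C, received compound in DMSO plus dopamine at EC20 (50 nM final) for 90 min at 37 deg C. Beta-arrestin recruitment was read as luminescence after 1 h with detection reagent at ambient temperature.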
# PINK1 expr mod = PINK1 expression modulation; Potency, µM (titrated, usually from 76.6 µM), inactives show at the top dose activation (PINK1 increase), hits mostly activators; AID 624263; 410,000 compounds, 0.2% hits; PINK1 immunofluorescence, high-content cytometry, 24 h; active = well fitted activation curve with a large enough effect; inconclusive = small, poorly fitted or top-dose-only effect; inactive = flat fitted curve, though single readings scatter; cell line not stated here;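 also: potency is read from the fitted curve at half-maximal effect; % of control where 0% means no effect; nearly all actives have a fitted effect of over 65% in size; a mitochondrial uncoupler was the plate control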
#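 Cells are seeded, rested 12 hours, then given compound at five concentrations or DMSO for 24 hours. After fixation, blocking and antibody staining, PINK1 amount and mitochondrial localization are scored; CCCP serves as control.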
# TRPML1 ag = activates the human TRPML1 channel; TRPML1-expressing cells, Ca2+ dye fluorescence, FDSS; host cell line not named in the record; reference of the full effect not given here; activation, % (concentration not given with the values); AID 624414; 410,000 compounds, 0.12% hits; Q9GZU1; in the data active = activation above about 50%; inconclusive = about 30% to 50%; inactive = below about 30%; also: 0% is about no effect; the text of the record puts the active cut at 80%
# Target sequence (Q9GZU1 whole entry, looked up): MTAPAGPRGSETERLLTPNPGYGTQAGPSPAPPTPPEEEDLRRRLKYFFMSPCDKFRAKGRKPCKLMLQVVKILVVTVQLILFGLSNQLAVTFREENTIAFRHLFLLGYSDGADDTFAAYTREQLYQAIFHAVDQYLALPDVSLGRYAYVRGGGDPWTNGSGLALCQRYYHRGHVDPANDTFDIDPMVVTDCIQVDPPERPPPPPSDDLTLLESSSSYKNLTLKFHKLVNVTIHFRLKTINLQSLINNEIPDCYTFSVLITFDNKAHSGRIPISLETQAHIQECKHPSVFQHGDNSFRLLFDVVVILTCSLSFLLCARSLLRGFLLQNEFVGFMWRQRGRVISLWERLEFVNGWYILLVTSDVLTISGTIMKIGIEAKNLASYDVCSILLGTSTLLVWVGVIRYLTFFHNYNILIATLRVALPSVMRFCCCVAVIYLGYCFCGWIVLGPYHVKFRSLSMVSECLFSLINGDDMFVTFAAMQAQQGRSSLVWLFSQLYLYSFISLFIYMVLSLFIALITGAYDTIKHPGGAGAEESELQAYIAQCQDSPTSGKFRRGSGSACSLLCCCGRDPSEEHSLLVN
#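 Kinetic FDSS Ca2+ read in Tet-induced TRPML1-DL cells (ABD Ca8 dye plus quencher, 45-90 min RT loading): baseline, then compound, then 110 s agonist window; EC80 agonist 54-4 at 4uM final added afterwards for a 110 s antagonist window.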
# The depositor's hits bear a star; ? = inconclusive; / = no result given; & = joins results of further samples; [ ] = another dose, or the depositor's remark.
mol | Six1-Eya2 blk | D2 ag | D2 potentiator | PINK1 expr mod | CtBP-E1A blk | TRPML1 ag
CC(=O)OCC(=O)[C@@]1(O)CC[C@H]2[C@@H]3CCC4=CC(=O)C=C[C@]4(C)[C@H]3C(=O)C[C@@]21C | -6 | 0.6 | -6 | 2.5% | / | 3.6
COc1ccc(/C(O)=C2/C(=O)C(=O)N(CCCN3CCOCC3)C2c2ccc(OC)cc2)cc1 (stereo not given) | -2 | -2.6 | -3 | 13% | 11 | 0.7
COc1cc(/C=C/C(=O)Nc2nc3ccc(S(=O)(=O)N(C)C)cc3s2)cc(OC)c1OC | 9 | -1.1 | 18 | ? | -14 | 0.3
Cn1c(N)c(C(=O)CSc2nc(N)cc(N)n2)c(=O)n(C)c1=O | -7 | -4.9 | -3 | 2.0% | / | 0.9
O=C(Nc1ccncc1)c1cccc2ccccc12 | -2 | -0.8 | -7 | -0.5% | -6 | 1.8
CCOC(=O)Nc1oc2ccccc2c(=O)c1C | -1 | -1.9 | -15 | -1.8% | 2 | -0.1
Cc1ccc(S(=O)(=O)NC(Cc2ccccc2)C(=O)O)cc1C (stereo not given) | 3 | 2.2 | -2 | 2.2% | 7 | -0.9
Cn1cnc2ncnn2c1=S | -1 | -4.7 | -5 | 0.4% | 4 | -0.3
Cc1ccc(/C=[N+](/C)[O-])cc1 | 9 | -3.0 | -3 | 1.0% | -13 | -0.2
CC1Cc2ccccc2N1C(=O)c1ccc2c(c1)nnn2C (stereo not given) | 2 | -2.3 | -2 | -0.5% | 2 | -0.7
COCCCNC(=O)CN1C(=O)COc2ccc(S(=O)(=O)N3CCOCC3)cc21 | 0 | -5.7 | -9 | 0.2%&0.3% | 2 | -0.3&-0.2
O=C(N/C(=C/c1ccccc1F)C(=O)N1CCCCC1)c1ccccc1 | -4 | 1.9 | 4 | 1.2% | 0 | 0.1
CCOc1ccc(NC(=O)C(C)SC(N)=O)cc1 (stereo not given) | 1 | -0.8 | -4 | -1.5%[38.3 µM] | 9 | 0.1
O=C(O)C1CCCCC1C(=O)Nc1cccc(Cl)c1Cl (stereo not given) | 2 | -3.9 | -8 | -2.7% | 0 | -0.8
Cc1cn([C@H]2C[C@H](O)[C@@H](CNS(=O)(=O)c3ccc(NS(=O)(=O)N(C)C)cc3)O2)c(=O)[nH]c1=O | 33 | -2.7 | -1 | 2.4% | -4 | 0.2
Cc1ccc(S(=O)(=O)N2CCC(C(=O)NCCN3CCCCCC3)CC2)cc1 | -2 | -0.3 | 6 | -2.4%[38.3 µM] | 1 | 1.4
COc1ccc2nc(SCC(=O)NC(C)(C)C)[nH]c2c1 | -2 | 0.4 | 13 | / | 4 | -0.1
O=C(NCC1CCCO1)C1CCN(C(=O)c2ccc(Br)cc2)CC1 (stereo not given) | 2 | 0.1 | 3 | -0.2%[38.3 µM] | 7 | 1.3
O=C(CN(C(=O)c1csnn1)c1ccccc1)NCc1ccc2c(c1)OCO2 | 4 | -2.4 | 0 | -3.1% | 22 | 0.4
CC(C)COC(=O)N(C)C[C@@H]1OCc2cnnn2CCCC(=O)N([C@H](C)CO)C[C@H]1C | 9 | -4.9 | 0 | -0.3% | -15 | 0.5
Cc1cc(N2CCN(S(=O)(=O)c3ccc(Br)cc3)CC2)n2ncnc2n1 | -1 | -2.8 | 3 | 0.7% | 0 | -0.1
Fc1cc2ncn(Cc3ccccc3)c2cc1F | 2 | 0.5 | 16 | -0.6% | 3 | 1.2
NC(=O)/C(=C\c1cccnc1)NC(=O)c1ccccc1 | 2 | 3.0 | -15 | 1.2% | -11 | -0.1
Cc1ccc(NC(=O)Nc2sc(=S)n(C)c2C)cc1 | 0 | -4.0 | -13 | 0.5% | -1 | -0.2
COc1cc(SC)ccc1C(=O)N(C)Cc1ccccc1 | 9 | -2.4 | -13 | -0.6% | 4 | -0.7
COc1ccc(C(=O)C=CNNC(=O)c2ccc(Cl)cc2)cc1 | -8 | -10 | -15 | -0.4% | 0 | 0.1
COc1cccc(CN(C)C(=O)c2cccc(S(=O)(=O)N3CCN(c4ccc(F)cc4)CC3)c2)c1OC | -7 | 8.3 | -23 | 0.4% | -21 | 2.9
CN(C)c1cc2c(cc1NC(=O)c1ccccc1Cl)n(C)c(=O)n2C | 3 | 0.1 | -26 | -0.4% | 5 | -1.6
OCCNC(=S)Nc1ccc2nsnc2c1 | -4 | -1.4 | -7 | -0.1% | 6 | -0.4
O=C(NCC(=O)c1ccccc1)OCc1ccc([N+](=O)[O-])cc1 | -4 | 2.1 | -2 | 1.6% | -4 | 0.7
O=C(O)C1CCN(C(=O)CSc2nc3ccccc3c(=O)n2Cc2ccccc2)CC1 | -13 | -1.7 | 11 | 3.1% | 0 | 1.8
O=C(O)c1ccc(-c2nc(-c3ccccc3)cs2)cc1 | 4 | 0.1 | 1 | 2.5% | -8 | -0.2
O=C(CSc1nc2ncc(Br)cc2[nH]1)Nc1ccc2c(c1)OCO2 | -18 | -1.3 | -16 | 12% | -16 | 0.2
Cc1nc(SCC(=O)NCc2ccccc2)c2oc3ccccc3c2n1 | 1 | -2.1 | -13 | -3.3% | -4 | -0.1
CSc1ncc2[nH]c(C(O)c3ccccc3)nc2n1 (stereo not given) | -4 | -3.5 | -12 | -1.0% | 11 | -0.1
Cc1oc(-c2cccc3ccccc23)nc1CN1CCC[C@H]1CO | -9 | -2.5 | -19 | 0.0% | 0 | -0.1
Cc1ccccc1NC(=O)c1ccc2c(c1)C(=O)N(CCC(C)C)C2=O | 1 | 0.3 | -7 | ? | 3 | 0.7
O=C(CSc1nc(-c2ccccc2)c(-c2ccccc2)[nH]1)NCCN1C(=O)CSC1=O | -7 | -7.8 | -26 | 2.8% | 0 | 2.0
Cc1cc(C)cc(NC(=O)C(c2ccccc2)N2CCN(CC(=O)NC3CC3)CC2)c1 (stereo not given) | 6 | -1.8 | 1 | 9.8% | 24 | -0.1
COC(CNC(=O)C(=O)Nc1cc2c3c(c1)CC(=O)N3CCC2)OC | 4 | -2.6 | 0 | 0.9% | 4 | 0.0

# Compounds listed so far that contain two or more sulfur atoms (5):
mol | Six1-Eya2 blk | D2 ag | D2 potentiator | PINK1 expr mod | CtBP-E1A blk | TRPML1 ag
COc1cc(/C=C/C(=O)Nc2nc3ccc(S(=O)(=O)N(C)C)cc3s2)cc(OC)c1OC | 9 | -1.1 | 18 | ? | -14 | 0.3
Cc1cn([C@H]2C[C@H](O)[C@@H](CNS(=O)(=O)c3ccc(NS(=O)(=O)N(C)C)cc3)O2)c(=O)[nH]c1=O | 33 | -2.7 | -1 | 2.4% | -4 | 0.2
Cc1ccc(NC(=O)Nc2sc(=S)n(C)c2C)cc1 | 0 | -4.0 | -13 | 0.5% | -1 | -0.2
OCCNC(=S)Nc1ccc2nsnc2c1 | -4 | -1.4 | -7 | -0.1% | 6 | -0.4
O=C(CSc1nc(-c2ccccc2)c(-c2ccccc2)[nH]1)NCCN1C(=O)CSC1=O | -7 | -7.8 | -26 | 2.8% | 0 | 2.0

# (cont.)
mol | Six1-Eya2 blk | D2 ag | D2 potentiator | PINK1 expr mod | CtBP-E1A blk | TRPML1 ag
CC1(C(=O)NS(=O)(=O)c2cccc(C#N)c2)CCN1C(=O)Cc1ccccc1 (stereo not given) | 4 | -0.4 | -5 | -0.1% | 2 | 0.1
Fc1ccccc1NC(=S)N1CCOCC1 | -7 | 1.0 | -2 | 2.1% | / | 1.0
O=C(N/N=C/c1cccc2cccnc12)[C@H]1C[C@@H]1c1ccccc1 | ? | 2.6 | -8 | -0.1% | ? | -0.1
Cc1nccn1CC(=O)N/N=C/c1cc(Br)cs1 | -5 | -3.7 | -15 | -0.8% | -4 | 0.3
CCCCn1c(=O)[nH]c(=O)c2c1nc(-c1ccc(OC(F)F)c(OC)c1)n2C | 57 | -4.3 | -1 | 0.4% | 5 | 0.5
COc1ccc(CC(CC(=O)O)C(=O)NCc2ccccc2)cc1 (stereo not given) | 2 | -2.1 | -4 | 0.3% | 0 | 0.4
Cc1ccc(OCC(=O)NC2CCCc3ccccc32)c(C)c1 (stereo not given) | 2 | -4.5 | -1 | 11% | 7 | 1.8
CCc1cc(=O)oc2cc(C)cc(OCC(=O)NC(Cc3c[nH]c4ccc(O)cc34)C(=O)O)c12 (stereo not given) | -1 | 7.1 | 20 | 0.5% | 2 | /
C[C@@H]1O[C@@H](Oc2c(-c3cc(O)c(O)c(O)c3)oc3cc(O)cc(O)c3c2=O)[C@H](O)[C@H](O)[C@H]1O | -21 | 1.0 | 2 | 0.1% | -5 | -0.5
C=CCn1c(SCC(=O)NC2CCCC2)nc2c([nH]c3ccccc32)c1=O | 5 | -3.2 | -8 | 4.4% | 3 | -0.3
COc1ccc2c(c1)nc(-c1cccc(Br)c1)c(=O)n2C(c1ccccn1)c1nc2ccccc2[nH]1 (stereo not given) | -2 | 14 | 0 | 7.3% | -2 | 0.0
CCn1c(SCC(=O)Nc2ccc(OC)c(OC)c2)nnc1-c1ccco1 | -3 | -4.4 | 4 | 0.6% | / | 0.6
CC(=O)NCCOc1cccc2ccccc12 | -1 | 1.2 | -7 | 0.9%[38.3 µM] | -2 | 0.0
Cc1[nH]n2c(=O)cc(Cc3ccccc3)nc2c1C#N | -2 | -2.6 | -1 | 0.4% | 3 | -1.3
c1ccc(-c2cc(-c3cc(-c4ccccc4)on3)no2)cc1 | 1 | -5.0 | -2 | -1.0% | -7 | 0.6
CCSc1ccc(NC(=O)c2cccnc2)cc1 | -2 | -1.0 | -13 | -1.3% | 2 | 3.8
O=C(c1ccoc1)N1CCC2(CC1)Oc1ccc(F)cc1C(=O)C21CC(c2ccc(Cl)cc2)=NO1 (stereo not given) | -5 | -0.5 | -5 | -0.4% | -7 | 1.5
CSc1nc(-c2ccccc2)nc(N2CCN(C)CC2)c1C(C)=O | -13 | -1.4 | -15 | 7.1% | -6 | 0.4
O=C(CCNC(=O)c1ccc(Br)cc1)NCCCN1CCCC1=O | 2 | 0.1 | 0 | 0.0% | 1 | 2.2
CCc1cc(-c2nnn(CCC3COCCO3)c2CC)ccc1-c1cn(Cc2ccccc2)nn1 (stereo not given) | -3 | 5.4 | / | 5.4% | -3 | /
CCC(=O)N(CC)c1nc(-c2ccc(OC)cc2)cs1 | 5 | 4.2 | -5 | 5.5% | 2 | 0.1
COc1ccccc1NS(=O)(=O)c1cc(NC(=O)c2ccncc2)ccc1N1CCOCC1 | -21 | 1.1 | -5 | 1.3% | -24 | 1.0
COC(=O)c1sc(-c2ccc(Cl)cc2)cc1NC(=O)c1ccccc1C(=O)O | -1 | -1.0 | -7 | 3.6% | 6 | 0.2
N#C/C(=C\c1cc2c(cc1Br)OCO2)c1ccc(C(=O)O)cc1 | -7 | -2.5 | -1 | -1.1% | 3 | 0.1
O=[N+]([O-])c1ccc2cn(C3OC(CO)C(O)C3O)nc2c1 (stereo not given) | -2 | -1.3 | -14 | 1.0% | -23 | 0.0
CC(OC(=O)CNC(=O)COc1ccccc1)C(=O)N(C)Cc1ccccc1 (stereo not given) | 7 | -4.6 | 8 | -0.1% | 11 | -0.1
CN(C)CCCNS(=O)(=O)c1ccc(-n2nnc3ccccc32)c([N+](=O)[O-])c1 | -25 | 1.2 | -6 | 1.4% | 0 | -0.7
